# Compound activity from PubChem.
# Resorufin fluor: compound fluoresces in the resorufin spectral region | AID 588 | actives 0.04% (n = 59,000) | Compound fluorescence, resorufin region 547/598 nm, buffer; stronger effect = higher value | max dye-equivalent concentration, M; active = above 10 nM dye equivalent; inconclusive = 1 to 10 nM; inactive = 1 nM or less; a few of its hits are not listed in these tables; note: highest value over a series up to 38 µM
#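 Dye-equivalent concentration values derive from comparing each well's 547/598 nm fluorescence against resorufin standards included on every plate. Incubation was 15 min at room temperature in 100 mM Tris, pH 8.0.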
# A647 autofl: A647 region autofluorescence | Compound fluorescence, A647 channel (570/671 nm), Tris buffer | max dye-equivalent concentration, M | 59,000 tested, under 10 active; active means above 1 µM dye equivalent; inconclusive means 0.1 to 1 µM; inactive means 0.1 µM or less;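 note: values scaled relative to a standard on each plate; highest value over a series up to 38 µM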
#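 Tris 100 mM pH 8.0; cpd + A647 stds pin-transferred; 15 min RT; CCD imager, ex 570/em 671. Output = A647-equivalent conc. per cpd conc.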
# AID923: qHTS Assay for Allosteric/Competitive Inhibitors of Caspase-1: Spectroscopic Profiling in AFC Spectral Region | Potency, µM (highest dose often 57.5 µM), without a hit: top-dose fluorescence increase, usual class: activators | compound fluorescence, AFC spectral region (405/520 nm); almost no hit is shown here | actives 1.1% (n = 75,000); active = well fitted activation curve with a large enough effect; inconclusive = small, poorly fitted or top-dose-only effect;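 note: potency is the fitted concentration of half-maximal effect; 0% is about no effect; scaled to a free AFC standard on each plate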
#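 Baseline compound fluorescence (AFC region, 405 nm ex/520 nm em) taken from the intercept of kinetic reads with 50 nM caspase-1 and 5 uM Ac-WEHD-AFC; normalized to an on-plate AFC standard curve; compounds titrated up to 57 uM.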
# A488 autofl: A488 region autofluorescence. compound autofluorescence, A488 spectral region, dye equivalency; stronger effect = higher value. max dye equivalency, M. actives 0.1% (n = 59,000); active = above 10 nM dye equivalent; inconclusive = 1 to 10 nM; inactive = 1 nM or less; about half of its hits are not listed in these tables;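 note: highest value over a series up to 38 µM; compound alone in buffer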
#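 Read-out: relative fluorescence at 480/540 nm, expressed as Alexa 488 dye-equivalent concentration from a six-point A488 standard included per plate. Conditions: 100 mM Tris, pH 8.0; 15 min incubation, room temperature.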
# TSHR agonist: TSH receptor (human) agonism; P16473; HEK293-CNG-TSHR cells (CNG channel as cAMP sensor), membrane potential dye, cAMP; Potency, µM (highest dose often 57.1 µM), without a hit: at the top dose activation, actives largely listed as activators; actives 0.48% (n = 73,000); AID 926; active = well fitted activation curve of enough size with the parental cells flat; inconclusive = any curve in the parental cells; inactive = parental cells flat and receptor cells flat or falling; note: potency is the fitted concentration of half-maximal effect; % of control where 0% means no effect; weak receptor curves with flat parental cells got no call and are not listed
# Target sequence (P16473 whole entry, looked up): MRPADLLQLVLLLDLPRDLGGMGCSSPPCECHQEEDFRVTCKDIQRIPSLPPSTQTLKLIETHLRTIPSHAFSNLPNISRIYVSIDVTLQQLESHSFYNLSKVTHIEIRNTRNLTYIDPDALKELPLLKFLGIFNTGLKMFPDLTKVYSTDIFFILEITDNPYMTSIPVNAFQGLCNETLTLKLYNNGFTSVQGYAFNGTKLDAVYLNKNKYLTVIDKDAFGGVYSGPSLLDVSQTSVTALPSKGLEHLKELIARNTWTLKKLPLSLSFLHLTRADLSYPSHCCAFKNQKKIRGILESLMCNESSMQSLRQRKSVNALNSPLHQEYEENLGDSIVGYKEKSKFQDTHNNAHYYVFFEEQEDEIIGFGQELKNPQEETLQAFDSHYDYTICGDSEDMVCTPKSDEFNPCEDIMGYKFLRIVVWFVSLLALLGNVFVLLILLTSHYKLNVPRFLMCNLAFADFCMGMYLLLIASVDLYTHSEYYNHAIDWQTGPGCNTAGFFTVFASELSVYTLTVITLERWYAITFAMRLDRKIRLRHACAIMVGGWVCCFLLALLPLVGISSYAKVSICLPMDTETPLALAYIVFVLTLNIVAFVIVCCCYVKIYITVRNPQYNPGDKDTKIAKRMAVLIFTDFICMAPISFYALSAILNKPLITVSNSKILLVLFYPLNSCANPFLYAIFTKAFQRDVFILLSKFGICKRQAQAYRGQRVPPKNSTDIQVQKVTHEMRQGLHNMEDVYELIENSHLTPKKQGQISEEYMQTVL
#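 cAMP rise detected as CNG-channel membrane depolarization by fluorescent dye (emission 590 nm), 30 min after compound, following 60 min dye loading containing 100 uM RO 20-1724 at room temperature. Cells: TSHR/CNG HEK 293, with parental CNG HEK 293 as control.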
# * hit, by the source's call; i = inactive; ? = inconclusive; . = not tested or not shown; & = joins results of further samples; [ ] = another dose, or the depositor's remark. These rows are one share of the data; the hit share may differ from the screen's.
SMILES,Resorufin fluor,A647 autofl,AID923,A488 autofl,TSHR agonist
CCc1c(C(=O)NCc2ccccc2Cl)[nH]c(C)c1C(C)=O,i,1e-09,4.8%,i,5.1%
Cn1cc(C2=C(c3ccc(Cl)cc3Cl)C(=O)NC2=O)c2ccccc21,?,1.8e-09,5.9%,2.72e-08M*,0.5%&-18.0%
Cc1ccc(C(c2nnnn2CC2CCCO2)N2CCN(C(=O)c3ccco3)CC2)cc1 (configuration not stated),i,1e-09,1.2%,i,?
Cc1nc2cnc(N3CCNCC3)nc2n(Cc2ccc(F)cc2)c1=O,i,3.02e-08,-3.3%,i,?
NC(=S)NCCC[C@@H](N)C(=O)O,i,1.5e-09,-4.1%,i,2.6%
O=C(NCc1ccc(N2CCCC2=O)cc1)c1cnccn1,i,2.37e-08,-1.6%,i,-4.9%
Cc1cccc(N2CCN(C(=O)c3cc4c(=O)n(C)c5ccccc5c4n3C)CC2)c1C,.,.,-0.5%,.,4.0%
Cc1cc(=O)oc2c(CN3CCCCC3)c(O)c(Cl)cc12,i,4.13e-08,.,i,.
COCCCNC(=O)c1ccccc1NS(C)(=O)=O,i,5.4e-09,0.2%,i,-6.0%
COc1ccc(C(=O)CSc2nnc(COc3ccc(C#N)cc3)n2-c2ccccc2)cc1,i,1.8e-09,0.0%,i,?
COc1cccc(-c2cc(C(=O)N/N=C/c3ccccc3O)[nH]n2)c1,.,.,1.1%,.,?
O[C@@H]1[C@@H](OCc2ccccc2)OC[C@H](O)[C@@H]1O,i,8e-09,0.3%[11.5 µM],i,3.6%[11.4 µM]
COC(=O)[C@@]1(Cc2ccc(OC)cc2)[C@@H]2C(=CC(=O)[C@H]2CC(=O)C(=O)N(C)C)CN1C(=O)c1ccccc1,.,.,-3.2%,.,7.1%
COCCNC(=O)C1CCCN(c2nn3c(=O)cc(C)nc3s2)C1 (configuration not stated),i,1.08e-08,-1.8%,i,0.1%[11.4 µM]
CCn1c(SCCC(=O)O)nnc1-c1cccnc1,i,1.36e-08,-1.9%,i,4.7%
Cc1ccc(-c2c(C)c(-c3ccc(F)cc3)nc(N)c2C#N)o1,i,1.75e-08,0.1%,i,16.1%
CCn1c(-c2cccc(Cl)c2)n[nH]c1=S,.,.,-1.6%,.,29.4%
CC(=O)Oc1ccc2c(c1)c(C(C)=O)c(C)n2C,i,4.58e-08,-3.7%,i,0.4%
COc1ccc(-c2c3c(=O)n(C)c(=O)n(C)c3cn2Cc2ccccn2)cc1,i,6e-09,1.1%,i,.
CC(=O)c1c(C(C)=O)c(C)n(-c2ccc(C(=O)O)cc2)c1C,i,1e-09,9.7%,i,-1.5%

# Structures listed above shown as hits in A488 autofl:
Structure | Resorufin fluor | A647 autofl | A488 autofl
Cn1cc(C2=C(c3ccc(Cl)cc3Cl)C(=O)NC2=O)c2ccccc21 | ? | 1.8e-09 | 2.72e-08M*

# Entries of single compounds from above. Order of screens: Resorufin fluor | A647 autofl | AID923 | A488 autofl | TSHR agonist
# O=C(NCc1ccc(N2CCCC2=O)cc1)c1cnccn1 as listed: i | 2.37e-08 | -1.6% | i | -4.9%
# COCCCNC(=O)c1ccccc1NS(C)(=O)=O as listed: i | 5.4e-09 | 0.2% | i | -6.0%

# (further entries)
SMILES,Resorufin fluor,A647 autofl,AID923,A488 autofl,TSHR agonist
CCC(=O)Nc1ccc2oc(-c3ccccc3Br)nc2c1,.,.,2.2%,.,-6.9%
CCOC(=O)C1CCN(C(=O)C2CCN(S(=O)(=O)CC)CC2)CC1,i,1.26e-08,0.7%,i,2.7%
COc1ccc(-c2nnc(SCC(=O)N3CCN(c4ccccc4)CC3)o2)cc1OC,.,.,-0.9%,.,4.6%
COc1ccc(CN2CCNC(=O)C2CC(=O)O)c(OC)c1 (configuration not stated),.,.,-0.2%,.,?
O=C(CN1CCN(C(c2ccccc2)c2ccccc2)CC1)NC(=O)NCc1ccco1,i,2.2e-09,0.1%,i,10.4%
CC(=O)SC(C)CC(=O)Nc1ccccc1 (configuration not stated),.,.,0.7%,.,?
O=C(Cc1cccs1)Nc1ccccc1NC(=O)Cc1cccs1,.,.,0.2%,.,18.5%
Cc1cc2oc3c(c(=O)c2cc1C)C(c1ccc(F)cc1)N(CCCN1CCOCC1)C3=O (configuration not stated),.,.,-9.2%,.,-4.3%
Cc1cccc(N2CCN(C(=O)C3CCN(S(=O)(=O)c4cccc5nsnc45)CC3)CC2C)c1 (configuration not stated),i,1.5e-09,0.5%,i,-10.7%
CCCOC(=O)C1=C(C)NC2=C(C(=O)CC(C)(C)C2)C1c1ccc(N(C)C)cc1 (configuration not stated),.,.,-0.4%,.,-5.6%
CC(C)COC(=O)n1c(=O)oc2cc(S(=O)(=O)N3CCCCC3)ccc21,i,4.8e-09,-1.0%,i,6.9%
O=C(CN1CCN(c2ccccn2)CC1)NCCc1ccccc1,i,9.1e-09,-0.6%,i,-0.9%
CCc1nnc(NC(=O)CSc2nnc(CSc3nc(C)cc(C)n3)o2)s1,i,5.05e-08,1.9%,i,-4.9%
CCOC(=O)N(C)OC(=O)Nc1ccc(Cl)c(Cl)c1,.,.,-1.0%,.,10.4%
Nc1nc2n(n1)C(c1cccc(Br)c1)CC(c1ccc(F)cc1)N2 (configuration not stated),.,.,-0.5%,.,5.1%
Cc1ccc(-c2nc3ccccc3c(=O)n2CCN2CCOCC2)cc1,i,1.3e-08,-0.6%,i,7.1%
Cc1nc(NCc2ccccc2)c2nc(-c3ccccc3)n(CCCN(C)C)c2n1,.,.,-0.9%,.,?
O=C(O)CC1CCS(=O)(=O)C1 (configuration not stated),i,5.3e-09,0.0%,i,-2.1%
O=C(O)c1ccccc1OCCOc1ccccc1C(=O)O,i,1.3e-08,0.2%,i,-8.6%
Cn1c(=O)c2c(nc(N3CCNCC3)n2Cc2cccc3ccccc23)n(C)c1=O,i,2.5e-09,-2.5%,i,-8.7%
O=C(c1ccc(N2C(=O)CCC2=O)cc1)N1CCN(c2ccccc2)CC1,i,4.03e-08,0.1%,i,-0.4%
O=C(O)CCN1Cc2ccccc2C1=O,i,1e-09,1.3%,i,?
COc1ccc(NC(=O)CCN2CCN(S(=O)(=O)c3cc(Cl)ccc3OC)CC2)cc1,i,1e-09,-0.7%,i,7.4%
Cc1nn(C)cc1/C=N/O,i,1.7e-09,.,i,.
CN1CCCCc2c1nc1ccccc1c2N (tested in a mixture with another compound),i,2.6e-09,-1.3%,i,?
COCC(=O)N1CCC2(CC1)CCN(C(=O)NC(C)C)CC2,i,2.9e-09,0.4%,i,-2.0%
CCCNC(=O)c1nc2ncc(Br)cn2n1,i,3.28e-08,0.6%,i,23.2%
Cc1cc(C)c2c(n1)nn1c(C)c(CCC(=O)NCc3ccco3)c(C)nc21,.,.,5.0%,.,-6.9%
C=CCOc1ccccc1/C=c1\sc2nc(-c3oc4ccccc4c3C)nn2c1=O,i,1.2e-08,2.4%,i,3.0%
Cc1ccc(C)c(N2CCN(C(=O)c3ccc(Cn4c(=O)[nH]c5ccccc5c4=O)cc3)CC2)c1,i,5.1e-09,0.8%,i,6.4%
Cc1cc(=O)c2n(Cc3ccc(Cl)cc3)nc[n+]2[nH]1,i,1e-09,1.1%,i,4.2%
COc1ccc(OC)c(N(CC(=O)NCCSc2ccccc2)S(C)(=O)=O)c1,.,.,5.5%,.,6.4%
CN(C)c1ccc(CNC23CN4CN(CN(C4)C2)C3)cc1,i,1e-09,-0.1%,i,-8.9%
Nc1cccc2cnccc12,i,1e-09,0.1%,i,9.1%
Cc1ccc(C)c(N2C(=O)CC(N3CCN(Cc4ccc5c(c4)OCO5)CC3)C2=O)c1 (configuration not stated),.,.,2.2%,.,15.3%[11.4 µM]
O=S(=O)(Nc1cccc2ncccc12)c1cccs1,i,2.89e-08,-1.6%,i,?
O=c1c2cnn(-c3ccccc3)c2ncn1/N=C/c1ccncc1,i,1e-09,-2.8%,i,-9.4%
CNC(=O)C1CC(=O)N(Cc2ccc3c(c2)OCO3)C(=Nc2ccc(OC)cc2)S1 (configuration not stated),i,4.7e-09,-1.3%,i,.
O=C(NCc1cccs1)c1cccc(N2CCCC2=O)c1,i,1.3e-09,1.7%,i,-4.8%
c1ccc(N2CCN(Cc3ccnc4ccccc34)CC2)cc1,.,.,0.7%,.,20.7%
Cc1cc(C)nc(Nc2n[nH]c(COc3ccccc3)n2)n1,i,1.71e-08,-1.0%,i,3.3%
O=C(Nc1cnc2ccccc2c1)c1cccnc1,.,.,-2.8%,.,6.1%
C=C(C)CSc1nc2ncccc2[nH]1,i,1.4e-09,-0.3%,i,-1.2%
Cn1c(CN2CCCC2)nc2cc(NS(=O)(=O)c3ccccc3)ccc21,i,3e-09,-0.9%,i,-10.6%
O=C(Nc1ccc(N2CCCC2)c(Cl)c1)c1ccc(Br)o1,.,.,4.3%,.,-1.6%[11.4 µM]
CC(C)c1[nH]nc2c1C(C(C)C)C(C#N)=C(N)O2 (configuration not stated),i,2.54e-08,1.6%,i,-4.1%
N#Cc1cccc(NC(=O)N2CCC3(CC2)CCN(C(=O)c2csnn2)CC3)c1,i,1.95e-08,2.6%,i,?
COc1ccc(C(N)=O)cc1NC(=O)c1cccc(F)c1,.,.,3.0%,.,12.4%
COC(=O)c1c(C)oc2ccc(NS(=O)(=O)c3cccs3)cc12,i,5.1e-09,-0.8%,i,25.5%
CSc1cccc(NS(=O)(=O)c2cccc3nsnc23)c1,i,1.55e-08,-0.2%,i,.
[O-][n+]1onc2c1CCC1N(O)C(c3ccccc3)CC21O (configuration not stated),i,1e-09,0.4%,i,8.2%
CNC1=C(Br)C(=O)c2ccncc2C1=O,.,.,-2.2%,.,?
O=C(NCC1CCCO1)C1CCN(CC2CCCCC2)CC1 (configuration not stated),i,1e-09,-1.3%,i,-2.1%
O=C(c1n[nH]c(=O)c2ccccc12)N1CCN(c2ccccc2Cl)CC1,i,2.92e-08,-1.1%,i,7.5%
Cc1cc(C)cc(N(CC(=O)NCC2CCCO2)C(=O)CCC(=O)Nc2cc(C)on2)c1 (configuration not stated),i,4.27e-08,0.7%,i,5.3%
Cc1cc(C(=O)CSC(C)c2nc3ccccc3c(=O)[nH]2)c(C)n1C (configuration not stated),i,1.67e-08,1.5%,i,-11.4%
COc1ccc(-c2nnn(CC(=O)N(C3CCCC3)C(C)C(=O)NC3CCCC3)n2)cc1OC (configuration not stated),i,1e-09,-2.3%,i,?
CCOC(=O)N1CCN(c2ccc3nnnn3n2)CC1,.,.,-0.8%,.,-0.1%
CCOc1ccc(CC2S/C(=N/c3ccccn3)NC2=O)cc1 (configuration not stated),i,2.86e-08,-0.1%,i,16.5%
O=C(CCCn1c(SCC(=O)NC2CCCCC2)nc2ccccc2c1=O)NCC1CCCO1 (configuration not stated),i,3.63e-08,0.9%,i,11.6%

# Next structures
SMILES,Resorufin fluor,A647 autofl,AID923,A488 autofl,TSHR agonist
COC(=O)COc1ccc(S(=O)(=O)NCCC2=CCCCC2)cc1,i,1e-09,-2.8%,i,2.4%
O=C(Nc1ccc(S(=O)(=O)N2CCCC2)cc1)c1ccc(CN2CCOCC2)cc1,i,4.47e-08,0.4%,i,.
CCC(Sc1nc2n[nH]c(C)c2c(=N)n1-c1cccc(Cl)c1)C(=O)NCCOC (configuration not stated),i,7.9e-09,-0.4%,i,4.5%
CCSC1=C(C#N)C(c2cccs2)C(C(=O)OC)=C(C)N1 (configuration not stated),i,1e-09,.,i,.
COc1ccc(OC)c(C2/C(=C(\O)c3c(C)nc4ccccn34)C(=O)C(=O)N2CCCN(C)C)c1 (configuration not stated),i,2.8e-09,-0.5%,i,-10.6%
Cc1o[nH]c(=O)c1CC[C@H](N)C(=O)O,.,.,1.1%,.,3.2%
